# Bioassay records as filed in PubChem.
# PINK1 expr mod – PINK1 expression modulation. 0.2% of 410,000 active. Potency, µM (series often up to 76.6 µM), for inactives: at the highest dose activation (PINK1 increase), usual class: activators. PINK1 immunofluorescence, high-content cytometry, 24 h; active = well fitted activation curve with a large enough effect; inconclusive = small, poorly fitted or top-dose-only effect; inactive = flat fitted curve, though single readings scatter; cell line not stated here;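 note: potency is the fitted concentration of half-maximal effect; % of control where 0% means no effect; nearly all actives have a fitted effect of over 65% in size; a mitochondrial uncoupler was the plate control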
#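 Compound titrations (5 concentrations, 24 h) on a stable cell line; DMSO and CCCP controls. Endpoint: fixed-cell PINK1 immunofluorescence with mitochondrial, cell and nuclear markers, scanned by microplate cytometer.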
# TRPML1 blocker – inhibitors of human TRPML1 channel; Q9GZU1; TRPML1-inducible cells, Ca2+ dye fluorescence, FDSS; active compounds read low; inhibition of EC80 agonist-evoked calcium signal; activity change, negative = inhibition, % (concentration not given with the values); 0.02% of 390,000 active; in the data active means activity change below about -50%; inconclusive means about -30% to -50%; inactive means above about -30%;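 note: stimulus is agonist 54-4 at its EC80 concentration; % is set by controls: 0 for no effect and ±100 for the full control effect; the text of the record puts the active cut at -80%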
#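 TRPML1-DL cells, Tet-induced overnight (~16 h, 37 °C) at 1,500 cells/well, were loaded with Ca8 no-wash dye plus quencher for 45-90 min at room temperature. Compounds were pinned during FDSS kinetic reading; agonist 54-4 at EC80 (4 uM final) then added.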
# CtBP-E1A inh – inhibitors of CtBP/E1A interaction | AlphaScreen GST-E1A/His-CtBP binding, 1536-well; active compounds read low; control for the full effect not named in the record | activity change, % (concentration not given with the values) | 0.49% of 340,000 active; in the data active means activity change below about -65%; inconclusive means about -30% to -65%; inactive means above about -30%; note: % is set by controls: 0 for no effect and ±100 for the full control effect
#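 GST-E1A and His-tagged CtBP (125 nM each as 5X stock) were preincubated with pin-transferred compound for 2 h at 37 °C in the dark, then glutathione donor and nickel acceptor beads were added for 1 h before AlphaScreen reading.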
# TRPML1 agonist – activates the human TRPML1 channel | activation, % (test concentration not listed) | 0.12% of 410,000 active | TRPML1-expressing cells, Ca2+ dye fluorescence, FDSS; host cell line not named in the record; reference of the full effect not given here | AID 624414 | Q9GZU1; in the data active = activation above about 50%; inconclusive = about 30% to 50%; inactive = below about 30%; note: 0% is about no effect; the text of the record puts the active cut at 80%
#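 Tet-induced TRPML1-DL cells, 1,500 per well, cultured overnight, were loaded with a no-wash Ca2+ dye for 45–90 min. Calcium fluorescence was recorded on the FDSS for 110 s after compound addition, before the EC80 agonist (4 uM 54-4) was added.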
# Six1-Eya2 blk – Six1/Eya2 interaction inhibition; Q15475+O00167; AlphaScreen GST-Six1/His-Eya2 binding, biochemical; active compounds read low; control for the full effect not named in the record; activity change, % (concentration not given with the values); 0.56% of 360,000 active; AID 651725; in the data active = activity change below about -65%; inconclusive = about -30% to -65%; inactive = above about -30%; note: % is set by controls: 0 for no effect and ±100 for the full control effect
# Target sequence (O00167 whole entry, looked up): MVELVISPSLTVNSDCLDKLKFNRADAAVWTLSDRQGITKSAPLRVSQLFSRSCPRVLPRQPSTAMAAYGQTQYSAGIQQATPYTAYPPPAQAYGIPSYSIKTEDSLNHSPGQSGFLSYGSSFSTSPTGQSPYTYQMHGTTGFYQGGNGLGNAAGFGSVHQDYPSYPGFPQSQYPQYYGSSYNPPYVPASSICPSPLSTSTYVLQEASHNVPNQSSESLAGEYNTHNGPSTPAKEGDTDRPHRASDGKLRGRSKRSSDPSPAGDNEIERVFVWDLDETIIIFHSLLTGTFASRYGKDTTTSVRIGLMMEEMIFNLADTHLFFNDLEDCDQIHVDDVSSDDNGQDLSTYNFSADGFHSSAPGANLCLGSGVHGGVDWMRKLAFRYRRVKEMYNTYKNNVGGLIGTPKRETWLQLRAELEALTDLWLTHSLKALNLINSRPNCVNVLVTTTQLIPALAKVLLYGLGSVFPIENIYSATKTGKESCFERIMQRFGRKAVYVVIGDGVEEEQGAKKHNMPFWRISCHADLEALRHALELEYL
# Target sequence (Q15475 whole entry, looked up): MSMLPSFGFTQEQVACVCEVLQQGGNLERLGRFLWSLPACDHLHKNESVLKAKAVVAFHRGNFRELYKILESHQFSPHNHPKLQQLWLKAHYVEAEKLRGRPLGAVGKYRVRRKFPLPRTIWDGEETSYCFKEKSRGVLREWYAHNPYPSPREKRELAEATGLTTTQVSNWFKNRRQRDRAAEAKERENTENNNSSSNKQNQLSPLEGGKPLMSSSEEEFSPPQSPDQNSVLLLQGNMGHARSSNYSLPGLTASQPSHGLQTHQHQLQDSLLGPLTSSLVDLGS
#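 AlphaScreen luminescence read after one hour at 37 °C in darkness. Pin-transferred compounds met GST-Six1 and His-Eya2 protein (5X stock 250 nM/500 nM) plus glutathione donor and Ni-chelate acceptor beads (5X, 50 ug/mL).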
# D2 ag – activates the human D2 dopamine receptor. P14416. DiscoveRx PathHunter D2 beta-arrestin, luminescence, 90 min; 100% = 57 uM dopamine signal. activation, % (concentration not given with the values). 0.084% of 360,000 active. AID 624465; in the data active = activation above about 40%; inconclusive = about 15% to 40%; inactive = below about 15%; note: compound concentration not given in the record; the text of the record calls up to 30% inactive
#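 Agonist mode: compounds alone added to overnight-plated D2 PathHunter cells for 90 min at 37 C, with 57 uM final dopamine (EC100) defining full response. Beta-arrestin recruitment detected by chemiluminescent reagent, read after 1 h at ambient temperature.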
# An asterisk follows results filed as active; ? = inconclusive; . = not tested or not shown; & = joins results of further samples; [ ] = remark or other dose.
SMILES,PINK1 expr mod,TRPML1 blocker,CtBP-E1A inh,TRPML1 agonist,Six1-Eya2 blk,D2 ag
CCCCNC(=O)C1CC(=O)N(C2CCCC2)C1 (stereo unspecified),-0.1%[38.3 µM],26.3,-1.1,0.3,0.3,-1.3
O=C(CCNS(=O)(=O)c1ccc(OC(F)(F)F)cc1)N1CCCC1,0.0%,11.7,9.4,-0.9,2.3,2.9
O=C(CSc1nc(-c2ccccc2)c(-c2ccccc2)[nH]1)NCC1CCCO1 (stereo unspecified),-0.6%,9.9,1.4,0.1,3.0,-8.6
COc1cccc(CNS(=O)(=O)c2ccc3[nH]c4c(c3c2)CCCCC4)c1,22.9%,-20.6,.,1.6,.,.
CCOC(=O)[C@]12CCC=C1N(Cc1ccc3c(c1)OCO3)C(=O)[C@H](CC(=O)NCC13CC4CC(CC(C4)C1)C3)C2,0.0%,.,-9.7,-0.2,-4.5,.
CNC(=O)NCC12CC3CC(CC(C3)C1)C2,-0.4%[38.3 µM],1.1,15.5,2.2,4.7,0.9
CC1CC(C)CN(S(=O)(=O)c2cccc3nonc23)C1 (stereo unspecified),3.2%,-5.5,-17.0,-0.1,-13.2,-1.7
CCOc1ccc(CNC(=O)CCS(=O)(=O)c2cc3c4c(c2)CCN4C(=O)CC3)cc1OC,1.3%,-19.3,.,0.4,.,.
CS(=O)(=O)Nc1ccc(C2=NN(C(=O)c3ccco3)C(c3ccccc3)C2)cc1 (stereo unspecified),2.1%,-2.7,-3.8,1.0,-16.6,9.1
CCOC(=O)[C@H]1[C@H]2COc3ccc(Cl)cc3[C@@H]2N2C(=O)c3ccc(Cl)cc3NC(=O)[C@@]12C,1.8%,22.9,-11.6,0.9,-2.4,-3.6
Cc1ccc(N(CC(=O)NCc2ccccc2)C(=O)CCC(=O)Nc2nccs2)cc1,7.9%,2.4,13.5,0.2,2.6,-2.1
CCOC(=O)c1c(NC(=O)CSc2nnnn2-c2ccccc2)sc2c1CCC(C)C2 (stereo unspecified),-0.2%,8.9,-0.8,-0.1,1.6,0.1
NS(=O)(=O)c1ccc(CNC(=O)NC2(c3ccccc3)CC2)cc1,1.4%,-5.6,8.5,0.1,4.7,1.1
CCOC(=O)CCn1c(CC(=O)OCC)nc2ccccc21,-2.8%[38.3 µM],17.6,10.5,1.9,2.6,2.9
O=C(O)CCc1ccc(S(=O)(=O)N2CCOCC2)cc1,-1.1%,-7.6,8.9,-0.4,2.9,3.0
O=C(Cn1cc(SCc2ccc(F)cc2)c2ccccc21)N1CCCC1,1.4%,16.6,.,2.2,.,.
O=C(NC1CCCCCC1)c1ccc(CS(=O)Cc2cccc(Cl)c2)o1 (stereo unspecified),0.4%,-2.6,4.7,-1.1,1.0,3.0
CCCN(CC(=O)Nc1ccccc1C)C(=O)C1CC(=O)N(c2cccc(C)c2C)C1 (stereo unspecified),-0.7%,7.0,8.9,0.3,-1.4,-3.7
CC(C)c1cc2cc3ccc(=O)oc3cc2o1,0.8%,-3.8,13.7,2.1,-1.5,0.6
CCOc1ccccc1NC(=O)COC(=O)C1COc2ccccc2O1 (stereo unspecified),1.3%,-8.7,-2.2,-1.4,11.0,0.7
COc1ccccc1/C=C/C=N/n1c(-c2ccc(C)cc2)n[nH]c1=S,1.8%,30.0,-6.7,3.5,-8.3,4.5
Cc1ccc(Oc2nc3ccccn3c(=O)c2/C=C(\C#N)c2nc3ccccc3s2)c(C)c1,2.3%,-5.2,.,-0.1,.,.
Clc1cccc(N2CCN(c3ncnc4nc[nH]c34)CC2)c1,5.9%,7.7,7.4,-1.0,-7.1,-0.9
CCCCC1Cc2[nH][nH]c(=O)c2C(c2ccc(Cl)cc2)O1 (stereo unspecified),6.9%,.,1.7,-0.8,-6.8,.
CC(=O)Nc1ccc(S(=O)(=O)N2CCSC2)cc1,-1.1%,-6.4,5.8,-0.2,-2.5,-1.1
COc1ccc2occ(NC(C)=O)c2c1,-2.9%,0.8,-2.8,-1.0,-1.1,-1.8
Nc1c(C(=O)Nc2ccc3c(c2)OCCO3)nnn1Cc1ccc(F)cc1,16.1%,28.3,-1.8,2.6,-1.4,-1.6
O=C(O)c1ccccc1S(=O)CCO (stereo unspecified),-2.3%,26.9,-3.8,-1.0,1.0,-3.5
COc1ccc(CCN(C)C2CCCN(S(=O)(=O)C(C)C)C2)cc1OC (stereo unspecified),0.9%,0.7,3.0,-0.4,-6.1,-6.7
Cc1cccc2c(SCC(N)=O)nc(-c3ccccc3)nc12,2.5%,-4.9,.,-0.3,2.7,1.6

# Arranged by number of heavy atoms (lowest first): 13 of the compounds above
SMILES,PINK1 expr mod,TRPML1 blocker,CtBP-E1A inh,TRPML1 agonist,Six1-Eya2 blk,D2 ag
COc1ccc2occ(NC(C)=O)c2c1,-2.9%,0.8,-2.8,-1.0,-1.1,-1.8
CNC(=O)NCC12CC3CC(CC(C3)C1)C2,-0.4%[38.3 µM],1.1,15.5,2.2,4.7,0.9
O=C(O)CCc1ccc(S(=O)(=O)N2CCOCC2)cc1,-1.1%,-7.6,8.9,-0.4,2.9,3.0
CCCCC1Cc2[nH][nH]c(=O)c2C(c2ccc(Cl)cc2)O1 (stereo unspecified),6.9%,.,1.7,-0.8,-6.8,.
Cc1cccc2c(SCC(N)=O)nc(-c3ccccc3)nc12,2.5%,-4.9,.,-0.3,2.7,1.6
O=C(CCNS(=O)(=O)c1ccc(OC(F)(F)F)cc1)N1CCCC1,0.0%,11.7,9.4,-0.9,2.3,2.9
COc1ccccc1/C=C/C=N/n1c(-c2ccc(C)cc2)n[nH]c1=S,1.8%,30.0,-6.7,3.5,-8.3,4.5
O=C(Cn1cc(SCc2ccc(F)cc2)c2ccccc21)N1CCCC1,1.4%,16.6,.,2.2,.,.
Nc1c(C(=O)Nc2ccc3c(c2)OCCO3)nnn1Cc1ccc(F)cc1,16.1%,28.3,-1.8,2.6,-1.4,-1.6
CS(=O)(=O)Nc1ccc(C2=NN(C(=O)c3ccco3)C(c3ccccc3)C2)cc1 (stereo unspecified),2.1%,-2.7,-3.8,1.0,-16.6,9.1
CCCN(CC(=O)Nc1ccccc1C)C(=O)C1CC(=O)N(c2cccc(C)c2C)C1 (stereo unspecified),-0.7%,7.0,8.9,0.3,-1.4,-3.7
CCOC(=O)[C@H]1[C@H]2COc3ccc(Cl)cc3[C@@H]2N2C(=O)c3ccc(Cl)cc3NC(=O)[C@@]12C,1.8%,22.9,-11.6,0.9,-2.4,-3.6
Cc1ccc(Oc2nc3ccccn3c(=O)c2/C=C(\C#N)c2nc3ccccc3s2)c(C)c1,2.3%,-5.2,.,-0.1,.,.

# Following part.
SMILES,PINK1 expr mod,TRPML1 blocker,CtBP-E1A inh,TRPML1 agonist,Six1-Eya2 blk,D2 ag
CC(NC(=O)c1cc(S(=O)(=O)N2CCCC2)ccc1Cl)c1ccccn1 (stereo unspecified),-0.2%,76.9,0.8,-0.2,2.6,-0.7
COc1ccc(OC)c(Nc2nc(-c3c(C)nc4ncccn34)cs2)c1,3.5%,0.9,-82.1*,4.5,?,11.7
CC(C)(C)n1ncc2c(=O)n(Cc3c(F)cccc3Cl)cnc21,1.2%,-2.0&-0.8,-0.8,2.5&1.0,-2.4,-2.7
COc1ccc(/C=C/C(=O)OCC(=O)NC2CCCCCCC2)cc1,4.1%,7.7,4.4,1.9,-0.7,-4.5
COc1ccc(OC)c(/C=C2\Oc3cc(OCC(=O)N4CCC(C(=O)O)CC4)ccc3C2=O)c1,-0.4%,27.9,8.4,12.1,2.8,-0.8
O=C(N[C@@H]1c2ccccc2CC[C@@H]1OCc1ccccc1)c1ccc(-c2ccccc2)cc1,2.7%,-0.1,4.7,-0.6,5.6,1.3
COc1ccc(/C=C2\CC/C(=C\c3ccc(OC)c(OC)c3)C2=O)cc1OC,3.2%,21.0,-10.6,4.1,6.6,-2.9
COc1ccc(-n2c(SCC(=O)NC3CC3)nc3ccccc3c2=O)cc1OC,1.5%,0.4,4.1,-0.2,3.0,-3.4
O=C(C1=C[C@H](C2CC2)C[C@H](OCc2ccc(CO)cc2)O1)N1CCN(Cc2ccc3c(c2)OCO3)CC1,-1.4%,-6.0,-23.6,0.4,-10.7,0.4
CCOc1ccccc1NC(=O)COc1ccc(S(=O)(=O)NC2CCCCC2)cc1,-0.7%,-11.4,.,1.2,.,.
O=C(Nc1c2c(nn1-c1ccc(F)cc1)CS(=O)(=O)C2)c1ccc(Br)o1,0.6%,23.8,0.0,0.0,-13.4,10.2
Cc1cccn2c(=O)c(/C=N/O)c(Nc3ccccc3F)nc12,0.5%,-4.8,2.5,-0.8,-1.8,-4.0
CN1/C(=C\C(=O)c2cccnc2)C(C)(C)c2ccccc21,-0.2%,-14.6,.,1.7,3.2,-1.8
CCCCCC(=O)NNC(=S)NC(=O)c1ccccc1[N+](=O)[O-],3.7%,7.7,-12.9,-0.3,2.3,-11.5
CSc1nnc(CCNS(=O)(=O)c2ccccc2Br)n1C,0.2%,-12.8,2.9,0.6,21.3,-1.7
Clc1ccc(-c2cn3nc4c(nc3n2)CCCC4)cc1,1.6%,4.5,11.6,4.6,20.1,-0.5
CC(C)(C)OC(=O)C[C@H]1C/C=C\C[C@H](CC(=O)N(CCO)Cc2ccccc2)C(=O)N[C@@H](c2ccccc2)COC1=O,0.3%,1.0,-10.0,0.3,28.6,-9.4
CNS(=O)(=O)c1ccc(NS(=O)(=O)c2ccccc2F)cc1,1.1%,-4.9,.,-0.2,2.2,-0.7
Cc1ccc(N(C(=O)CNC(=O)c2ccco2)C(C(=O)NC2CCCCC2)c2ccncc2)c(C)c1 (stereo unspecified),1.0%,-5.3,4.7,1.3,-3.6,4.6
COc1cc(OC)cc(C(=O)Nc2ccc(Cn3ccnc3)cc2)c1,-0.3%,11.0,-3.5,3.3,3.2,3.2
Cc1nn(-c2ccccc2)c(OC(=O)C(C)(C)C)c1Sc1ccccc1,2.9%,19.5,.,-0.2,.,.
CN(C)/C=N/c1sc2c(c1C#N)CCCC2,1.9%,6.3,23.1,-1.0,2.0,0.7
COc1ccc(N2CCN(C(=S)Nc3ccccc3)CC2)cc1,4.1%,-11.4,-3.4,-0.7,4.4,0.8
COC(=O)c1c(C)[nH]c(C(=O)/C=C/c2ccc(C)cc2)c1C,-0.7%,-16.1,-15.4,0.8,-1.3,-3.1
O=C(NNc1ccc(-c2csnn2)cc1)c1ccccc1C(F)(F)F,1.2%,0.3,-22.2,-0.3,7.7,-2.1
O=C(NNc1nccc(C(F)(F)F)n1)Nc1cccc(Cl)c1,-2.6%,-13.5,7.7,1.5,7.2,10.4
Cc1ccc(OCC(=O)NCCC2=CCCCC2)cc1,1.4%,20.0,15.2,-0.2,0.9,-3.4
COc1cccc(CN(C)Cc2nc3cc(C(F)(F)F)ccc3c(=O)[nH]2)c1,-0.7%,3.4,-8.5,1.0,-15.3,0.7

# Compounds as they come; 1% or so of the library scored in one or more.
